H5N1 CPE: antiviral screen in MDCK cells, H5N1 avian flu. cytopathic effect, luminescence, 72 h; hits give high values; no value below 0 was filed and about half of the inactive calls have no number; reference of the scale not given here. inhibition, % at 50 µM. 96,000 tested, 0.07% active; in the data active = inhibition above about 25%
* = called active by the depositor; i = inactive. Not all compounds are listed; rates above refer to the full screens.

SMILES	H5N1 CPE
COc1ccc(C(C[N+](=O)[O-])c2c(-c3ccccc3)cc3ccccn23)c(OC)c1 (stereo not drawn)	i
CC(C)=CCC(C)(C)C1OCCN1C(=O)Nc1ccccc1 (stereo not drawn)	i
CCOc1cc(-c2cc(N)n[nH]2)cc(OCC)c1OCC	i
Cc1ccc(-c2noc(CN(C(=O)CCCCCN3C(=O)c4ccccc4C3=O)C(C)C)n2)cc1	i
CCN1CCN(CC(=O)c2c[nH]c3ccccc23)CC1	1.4
O=c1[nH]c(C(F)(F)F)nc2c1nnn2Cc1ccccc1F	i
O=S(=O)(Cc1cc(Sc2ccccc2)nc(-c2ccccc2)n1)c1ccccc1	i
Cc1nnsc1NC(=O)OCC(C)(C)C	2.2
COCCNC(=O)C(C)N(c1ccc(OC)cc1)S(C)(=O)=O (stereo not drawn)	i
COc1ccc(/C=N/NC(=O)COc2ccccc2-c2ccccc2)cc1	0.6
Cc1ccc(C)c(-c2nc3cc(N)ccc3o2)c1	i
N#Cc1cnn2c1nc(N1CCCCC1)c1ccccc12	0.5
CCOCCCNC(=O)c1cn(C)c2ccc(S(=O)(=O)N(C)C3CCCCC3)cc2c1=O	0.4
CCC(=NCCCN(CC)CC)c1c(O)n(-c2ccccc2)c(=O)[nH]c1=O	i
CC(C)(C)c1nc(N2CCN(C(=O)c3ccco3)CC2)c2nnn(Cc3ccccc3Cl)c2n1	i
O=C(NCCc1ccccc1)c1cc(-c2ccco2)on1	i
Cn1cccc1-c1nc2ccccc2n1Cc1ccccc1	i
CC(C)C(=O)NNc1nc2ccccc2s1	i
CC(=O)Oc1ccc(N2C(=O)CC(N3CCOCC3)C2=O)cc1 (stereo not drawn)	0.2
CC(=O)Nc1nc2ccc(Br)cc2s1	2.1
COc1ccc(-n2c(Cc3cccn3C)nnc2SCC(=O)NC2CCCCC2)cc1	1.5
CCN(C(=O)CN1CCN(c2ccc(OC)cc2)CC1)c1c(N)n(Cc2ccccc2)c(=O)[nH]c1=O	0.5
COC(=O)CC1C(=O)NCCN1C(=O)CSc1nnc(Nc2ccc(C)cc2)s1 (stereo not drawn)	i
CC(C)CC(=O)N1CCN(S(C)(=O)=O)CC1	i
Nc1cc(Br)c(N)c(Br)c1	i
O=C1OCCC1Sc1nc2ccccc2s1 (stereo not drawn)	i
CCOc1ccc(CC(=O)Nc2sc(Cc3ccccc3)cc2C(N)=O)cc1OCC	1.0
CC(NS(=O)(=O)c1ccccc1)C(=O)Nc1ccc(S(N)(=O)=O)cc1 (stereo not drawn)	i
CC(=O)c1c[nH]c(C(=O)NCC2CCCO2)c1 (stereo not drawn)	i
CCCc1cc(=O)oc2cc(C)c(CN3CCCC3)c(O)c12	5.5
CC1(C)CC(=O)C2=C(C1)NC(=O)CC2c1ccc(N(CCC#N)CCC#N)cc1 (stereo not drawn)	1.2
CCCCn1nc2cc(C(=O)NC3CCc4ccccc43)ccc2c1OCC (stereo not drawn)	0.8
COc1ccccc1N1CCN(C(=O)C(F)F)CC1	i
N#Cc1ccsc1NC(=O)CSc1ncn[nH]1	2.2
COc1c(F)c(F)c(C(=O)Nc2ccc(N3CCN(Cc4ccccc4)CC3)cc2)c(F)c1F	i
Cc1noc(C)c1C(=O)N(CC(=O)NC1CCCC1)Cc1ccccc1F	0.7
CC(=O)C(C)Oc1cc(C)cc2oc(=O)c(C)c(C)c12 (stereo not drawn)	1.1
CCN1C(=O)/C(=C2\C=Cc3ccccc3N2CC)SC1=S	i
Cc1nn(C)c(C(=O)Nc2ccn(Cc3ccccc3F)n2)c1[N+](=O)[O-]	0.5
Cc1cccc(C)c1OCC(O)CN1CCC(CN2C(=O)c3cccc4cccc(c34)C2=O)CC1 (stereo not drawn)	i
CNc1ccccc1-c1nc2ccccc2n(C)c1=O	i
Cc1cc(C)nc(NC(=O)/C=C/c2ccc(Cl)cc2Cl)c1	i
Cc1cc(C)cc(OC(C)c2ccnc3nc(/N=C/N(C)C)nn23)c1 (stereo not drawn)	0.9
C#CC(C)(CC)NC(=O)Cn1nnc(-c2ccc(S(C)(=O)=O)cc2)n1 (stereo not drawn)	0.9
CCCCOc1ccc(/C=C2/Sc3ccccc3C2=O)cc1	i
Cc1cc(NC(=O)Nc2cc(C)nn2-c2ccccc2)n(-c2ccccc2)n1	i
S=C(NCCN1CCOCC1)N/N=C/c1ccccc1	0.6
CC(C)(C)c1ccccc1NC(=O)c1cccnc1	i
Cc1ccccc1OCCSc1nnc(-c2ccncc2)n1C	0.9
O=C(/C=C/C=C/c1ccccc1)CC1(O)C(=O)N(CCc2ccccc2)c2ccccc21 (stereo not drawn)	i

Later entries:
SMILES	H5N1 CPE
O=C(CSc1ccc2nnc(-c3ccccn3)n2n1)NCc1ccco1	23.5
COC(=O)c1ccccc1-c1ccc(/C=C2\C(=O)N(c3ccccc3)N=C2c2ccccc2)o1	i
OC1(C2(O)CC(c3ccccc3)ON2)CCCCC1 (stereo not drawn)	i
O=C(CC1CCS(=O)(=O)C1)Nc1ccc[nH]c1=O (stereo not drawn)	i
O=C(c1noc2c1CCCC2)N1CCOCC1	i
CCn1c(SCC(=O)NCc2ccc3c(c2)OCO3)nnc1-c1cccs1	i
Cn1c(=O)[nH]c(=O)c2c1nc(Br)n2CCSc1nc2ccccc2o1	0.6
Cc1nc2ccc(NC(=O)NCCCO)cc2s1	0.2
COc1ccc(S(=O)(=O)N(CCc2ccccc2)CC(=O)NC(C)C)cc1	2.1
O=c1c2[nH]c3ccccc3c2ncn1Cc1cccnc1	0.6

An excerpt of these results, with bars between the fields.
Compound | H5N1 CPE
CNc1ccccc1-c1nc2ccccc2n(C)c1=O | i
Cc1cc(C)nc(NC(=O)/C=C/c2ccc(Cl)cc2Cl)c1 | i
Cc1cc(C)cc(OC(C)c2ccnc3nc(/N=C/N(C)C)nn23)c1 (stereo not drawn) | 0.9
C#CC(C)(CC)NC(=O)Cn1nnc(-c2ccc(S(C)(=O)=O)cc2)n1 (stereo not drawn) | 0.9
CCCCOc1ccc(/C=C2/Sc3ccccc3C2=O)cc1 | i
Cc1cc(NC(=O)Nc2cc(C)nn2-c2ccccc2)n(-c2ccccc2)n1 | i
S=C(NCCN1CCOCC1)N/N=C/c1ccccc1 | 0.6
CC(C)(C)c1ccccc1NC(=O)c1cccnc1 | i
Cc1ccccc1OCCSc1nnc(-c2ccncc2)n1C | 0.9
O=C(/C=C/C=C/c1ccccc1)CC1(O)C(=O)N(CCc2ccccc2)c2ccccc21 (stereo not drawn) | i
O=C(CSc1ccc2nnc(-c3ccccn3)n2n1)NCc1ccco1 | 23.5
COC(=O)c1ccccc1-c1ccc(/C=C2\C(=O)N(c3ccccc3)N=C2c2ccccc2)o1 | i
OC1(C2(O)CC(c3ccccc3)ON2)CCCCC1 (stereo not drawn) | i
O=C(CC1CCS(=O)(=O)C1)Nc1ccc[nH]c1=O (stereo not drawn) | i
O=C(c1noc2c1CCCC2)N1CCOCC1 | i
CCn1c(SCC(=O)NCc2ccc3c(c2)OCO3)nnc1-c1cccs1 | i
Cn1c(=O)[nH]c(=O)c2c1nc(Br)n2CCSc1nc2ccccc2o1 | 0.6

(list continues)
SMILES	H5N1 CPE
O=[N+]([O-])c1cccc(-c2nc(-c3cccs3)c(-c3cccs3)[nH]2)c1	3.8
Cc1ccc(NC(=O)COc2ccc3oc4c(c3c2)CCCC4)nc1	i
COc1ccc(NC(=O)CN2CCN(Cc3ccc4c(c3)OCO4)CC2)cc1OC	i
Cc1nc(-c2cccnc2)sc1C(=O)Nc1ccc(F)cc1F	i
CCSC1=C(C#N)C(c2ccc(OC)c(OC)c2)CC(=O)N1 (stereo not drawn)	0.8
CCN(CC)c1ccc(/C=C(/C#N)c2nc3ccc(C)cc3[nH]2)c(OC(C)C)c1	i
Cn1c(Cc2ccccc2)nnc1SCC(=O)NC1CCCCC1	0.4
COC(=O)c1ccc(C2C(C(=O)c3cc4ccccc4o3)=C(O)C(=O)N2CCCN(C)C)cc1 (stereo not drawn)	0.7
COC(=O)CCCNC(=O)OCc1ccc([N+](=O)[O-])cc1	0.6
COc1cc(Br)cc2cc(C(=O)NCC3CCCO3)c(=O)oc12 (stereo not drawn)	i
O=C(O)Cc1ccc(C(=O)c2ccccc2F)s1	i
Cc1ccc(C(=O)C(OC(=O)CNC(=O)c2ccc(Cl)cc2)c2ccccc2)cc1 (stereo not drawn)	i
COc1cccc(OC)c1C(=O)Nc1ccccc1N1CCCC1	0.8
O=C1c2ccccc2S(=O)(=O)N1CC(O)Cn1ccc2ccccc21 (stereo not drawn)	i
N#Cc1nc(-c2ccc(OCc3ccc(Cl)cc3)cc2)oc1N1CCC(C(N)=O)CC1	i
CCN1CCCC1CNCc1cc(OC)c(OC)c(OC)c1 (stereo not drawn)	1.4
CCOC(=O)C(C)On1c(SC(C)C(=O)OCC)nc2ccccc2c1=O (stereo not drawn)	i
CCN1C(=O)c2c(C)nc3ccccc3c2C1=O	0.3
COc1cccc(C(=O)Nc2ccc(NC(=O)c3ccco3)cn2)c1	i
COc1ccc2c(c1OC)C(=O)NC(C)=C(C(=O)OC(C)(C)C)C2O (stereo not drawn)	0.7
COc1cc(NC(=O)CN2C(=O)c3ccccc3S2(=O)=O)c(OC)cc1Cl	i
COc1ccccc1NC(=O)C1C2C=CC3(CN(Cc4cccnc4)C(=O)C13)O2 (stereo not drawn)	1.7
Cc1occc1-c1nnc(SCC(=O)N2CC(=O)Nc3ccccc32)n1CC(C)C	0.2
COc1ccccc1N1CCN(Cc2ccc(OC)c(OC)c2OC)CC1	i
Cc1cnc(NC(=O)COc2cccc3c2OC(C)(C)C3)s1	0.7
CCn1c(=O)c2c(nc3n2CCCN3CCc2ccccc2)n(C)c1=O	i
Cc1cc(NC(=O)COc2ccc(Cl)cc2Cl)n(-c2ccccc2)n1	0.2
CSCCC(NC(=O)c1ccco1)C(=O)OCC(=O)Nc1ncc(Cl)c(C)c1Cl (stereo not drawn)	0.3
O=C(NC1CCCCC1)c1nn2c(C(F)(F)F)cc(-c3ccco3)nc2c1Br	0.4
COc1ccc(C(=O)NCC(=O)Nc2ccccc2)cc1OC	i
CCOC(=O)Nc1nc(C)c(C(=O)N(C)C)s1	0.3
COc1ccc(Br)cc1C1CC(=O)N2CN(C)CSC2=C1C#N (stereo not drawn)	0.7
Cc1nc2ccccc2c(=O)n1NCc1cccs1	0.6
COCCCNC(=O)CNC(=S)N(Cc1ccccc1F)C1CCCCC1	i
c1ccc(C2=Nc3ccccc3NC(c3ccccc3)C2)cc1 (stereo not drawn)	i
CCc1nc2oc(C(=O)c3ccccc3)c(N)c2c2c1COC(C)(C)C2	i
COc1ccc(OCCCN2CCCCCC2)cc1	0.5
O=C(NCCCCc1ccccc1)C1CC(c2ccccc2[N+](=O)[O-])=NO1 (stereo not drawn)	2.5
Cc1ccc(N(C(C)C(=O)Nc2cc(Cl)ccc2Oc2ccccc2)S(C)(=O)=O)cc1 (stereo not drawn)	i
COc1ccc(Cl)cc1NC(=O)N1CCN(C2CCCCC2)CC1	0.1
COc1ccccc1NC(=O)CN1CCC(C(=O)c2ccc(F)cc2)CC1	0.3
Cc1cc(C(=O)COC(=O)CN(C)S(=O)(=O)c2ccc(Cl)cc2)c(C)n1Cc1cccs1	i
O=C(c1ccc(N2CCCC2=O)cc1)N1CCOCC1	i
CN(CC(=O)NCc1ccccn1)S(=O)(=O)c1ccccc1	i
C(=C\c1nnc(-c2cccs2)o1)/c1ccccc1	i
O=c1ccn(Cc2ccccc2Cl)cc1	i
CC(C)(C)n1nnnc1C(c1cccc(C#N)c1)N1CCCCCC1 (stereo not drawn)	0.2
COc1ccc(OC)c(C(c2nnnn2CC2CCCO2)N2CCN(C)CC2)c1 (stereo not drawn)	i
O=c1cc(CO)oc(CN2CCN(CCO)CC2)c1O	i
NC(=O)CN1CCCN(S(=O)(=O)c2ccc(Br)cc2)CC1	1.0

Further entries:
SMILES	H5N1 CPE
O=C(O)C1CCCN(S(=O)(=O)c2cccc3cccnc23)C1 (stereo not drawn)	0.3
CCCNC(=O)c1cccc(Cn2nc(C)c(Br)c2C)c1	i
CCSc1nnc(NC(=O)c2cc(C)on2)s1	0.2
Cn1cnc2c1c(=O)n(Cc1c(Cl)cccc1Cl)c(=O)n2C	0.8
CN(C)CCC(=O)c1ccc2c(c1)OCO2	i
COc1ccc(-c2[nH]ncc2/C=C(/C#N)C(=O)NC2CCCCCC2)cc1	i
O=C(CN1CCN(Cc2ccccc2F)C1=O)NCCN1CCOCC1	1.1
Cc1ccc(NC(=O)CSc2nnc(-c3ccco3)c(-c3ccco3)n2)cc1	0.8
Cc1ccccc1CN(c1ccc(C(=O)Nc2ccccc2C(=O)N2CCCC2)cc1)S(C)(=O)=O	i
CS(=O)(=O)N(CC(=O)NCc1ccc2c(c1)OCO2)c1ccc(Cl)cc1	0.5
Cc1cc(S(=O)(=O)NC2CCCCC2)c(C)s1	0.2
CCOC(=O)Cc1csc(NC(=O)COc2ccccc2)n1	1.5
O=C(CSc1ccccc1)Nc1ccccc1C(=O)O	0.4
O=C(CCSc1nc(-c2ccco2)cc(C(F)(F)F)n1)NCc1ccccn1	0.4
C=CCn1c(SCC(=O)c2ccc(Br)cc2)nnc1C(C)NC(=O)Cc1ccc(OC)cc1 (stereo not drawn)	i
COC(=O)c1cc(NC(=O)C23CCC(C)(C(=O)O2)C3(C)C)cc(C(=O)OC)c1 (stereo not drawn)	0.5
CN1CCN(c2ccc([N+](=O)[O-])cc2C(=O)N2CCOCC2)CC1	i
Cc1noc(C(=O)NCc2ccccc2)c1Cl	0.3
C#CCSc1nnc(-c2sc3ccccc3c2Cl)o1	i
Cn1c(SCC(=O)N2CCN(S(=O)(=O)c3ccc(Cl)cc3)CC2)nc2ccccc21	6.6

Two entries from above, reformatted:
| structure | H5N1 CPE |
| --- | --- |
| C=CCn1c(SCC(=O)c2ccc(Br)cc2)nnc1C(C)NC(=O)Cc1ccc(OC)cc1 (stereo not drawn) | i |
| COC(=O)c1cc(NC(=O)C23CCC(C)(C(=O)O2)C3(C)C)cc(C(=O)OC)c1 (stereo not drawn) | 0.5 |

(listing goes on)
SMILES	H5N1 CPE
O=C(OCC(=O)N(C1CCCCC1)C1CCCCC1)c1ccncc1	0.8
COc1ccc(C2=CSC(/N=C/c3ccc(F)cc3)=NN2)cc1	i
Cc1c(CN2CCCCC2)c(O)n(CCCO)c(=O)c1C#N	1.0
COc1cccc(OCc2cc(/C=N/NC(=O)c3nc(Cl)c(Cl)c(N)c3Cl)ccc2OC)c1	1.1
